Bioassay records as filed in PubChem.
HIV TAR-Tat = HIV-1 TAR-Tat binding disruption. hit rate 0.6% among 100,000. z-score (no concentration beside the values). HIV-1 TAR RNA, Tat peptide displacement FRET; active compounds read high;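 also: score is relative to mean and SD of negative controls; some compounds called inactive have numbers as strong as hits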
CDC25B-CDK2 inh = human CDC25B-CDK2/CyclinA binding inhibition; HTRF CDC25B-CDK2/CyclinA binding, anti-His/anti-Flag; active compounds read high; z-score (test concentration not listed); AID 1259370; P30305+P24941; hit rate 0.72% among 94,000;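 also: score is relative to mean and SD of negative controls; strong numbers were not always called active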
Numbers without * were called inactive; / = not tested or not shown.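 The calls were made as follows: active = z-score from 3 up in half or more of its runs; inactive = the rest.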

SMILES	HIV TAR-Tat	CDC25B-CDK2 inh
O=C(O)CCc1nc2cccnc2n(Cc2ccccc2)c1=O	0.01	-0.42
O=S(=O)(NCC(c1ccco1)N1CCN(c2ccccc2F)CC1)c1cc(F)ccc1F (configuration not stated)	0.33	/
Cc1ccccc1-c1nc(SCC(=O)NCC2CCCO2)n2[nH]c(=O)cc2n1 (configuration not stated)	0.53	/
CCSc1nc2cn(CC)nc2c(=O)n1Cc1ccc(Cl)cc1	0.08	/
CC1(C)CC(=O)C=C(Nc2ccc(O)cc2)C1	-0.41	2.37
COC(=O)C1=C(C)Nc2ncnn2C1c1ccc(C)o1 (configuration not stated)	3.53	-1.03
COc1ccc(Cn2c(=S)[nH]c3cc(C(=O)NCCCN4CCOCC4)ccc3c2=O)cc1	/	0.66
CC1CCN(S(=O)(=O)N2CCCC(C(=O)NCCCN3CCCCC3)C2)CC1 (configuration not stated)	0.3	/
Cc1c(C(c2ccc(O)cc2)c2c(C)n(C)n(-c3ccccc3)c2=O)c(=O)n(-c2ccccc2)n1C	-0.83	-1.81
Cc1ccc2c(=O)cc(C(=O)N(Cc3ccc(C(C)(C)C)cc3)C3CCS(=O)(=O)C3)oc2c1 (configuration not stated)	0.91	-1.47
Cc1cc(C)c(C#N)c(SCC(=O)Nc2nccs2)n1	1.17	-2.57
O=S(=O)(c1ccc(F)cc1)N1CCN(c2ncccn2)CC1	0.72	-0.11
Cc1ccc(C2=NS(=O)(=O)N(C)C(C(=O)NC3CCCC3)=C2)cc1	1.19	-0.45
CCCNC(=O)C1CCN(C(=O)c2sccc2-n2cccc2)CC1	/	0.73
N#C/C(=C\c1ccc([N+](=O)[O-])s1)C(=O)C1CC1	/	-1.39
COc1ccc(-n2nnnc2C2CCN(S(=O)(=O)c3ccc(OC)c(OC)c3)CC2)cc1	0.75	-0.37
Cc1nnc2n(-c3ccccc3)c(=O)c3c4c(sc3n12)COC(C)(C)C4	/	-1.39
N#Cc1nc(/C=C/c2ccccc2Cl)oc1N1CCN(C(=O)c2ccccc2F)CC1	-1.16	-1.85
COc1ccc(OC)c(C(=O)c2cc(OC)c(OC)c(OC)c2)c1	/	-0.61
Cc1ccc(CNC(=O)C2CCCN(C(=O)c3cc4sccc4n3C)C2)cc1 (configuration not stated)	/	-0.93
COc1ccc(NC(=O)c2oc3ccccc3c2NC(=O)c2cc3ccccc3o2)c(OC)c1	1.79	-0.14
COc1ccccc1C1C(C(=O)OC(C)C)=C(C)Nc2nc(SCC(C)C)[nH]c(=O)c21 (configuration not stated)	0.53	-1.08
COc1ccc(-c2nnc(SCc3ccc(Br)cc3)o2)c(OC)c1	2.5	1.1
Cc1nc(-c2ccccc2)sc1C(=O)N1CCCc2ccccc21	/	-0.73
Cc1cc(S(=O)(=O)[C@H]2CS(=O)(=O)C[C@@H]2NCCC2=CCCCC2)ccc1F	1.43	-1.55
CNC(=O)c1ccc(CN2C(=O)C(C)=C(c3ccc(C)cc3)S2(=O)=O)cc1	1.02	/
CCC(C)Nc1ncnc2scc(-c3ccc(OC)cc3)c12 (configuration not stated)	1.66	/
Cc1cc2nc(CSc3nc4ccc(NC(=O)C5CCCCC5)cc4s3)cc(=O)n2o1	0.09	/
CC(=O)N1CCOc2ccc(S(=O)(=O)N3C(C)CCCC3C)cc21 (configuration not stated)	1.69	-1.63
CCOC(=O)N1CCN(c2c(NCc3cccs3)c(=O)c2=O)CC1	-2.1	-2.68
CSc1ccc(C2C3=C(CC(C)(C)CC3=O)Nc3cc4c(cc32)OCO4)cc1 (configuration not stated)	1.15	-0.67
COc1c(O)c(O)c2cc(OC)c3c(OC)cc(=O)c4c5c(=O)c(OC)c(C(C)=O)c6c5c(c1CC=6C)c2c34	-9.06	/
CC(C)C(=O)N1CCCC1c1ccco1 (configuration not stated)	1.51	-1.87
O=C(CSc1nc2ncccc2o1)Nc1ccccc1Br	0.74	/
O=C(Nc1ccc(F)c(Cl)c1)C1CCN(c2ccc(-c3cccs3)nn2)CC1	0.39	/
COc1ccccc1NC(=O)Nc1noc2c1COc1ccccc1-2	0.38	/
CC1Cc2cc(S(=O)(=O)CCC(=O)NC3CCCC3)ccc2N1C(=O)C1CC1 (configuration not stated)	0.1	/
Cc1ccc(-n2nc3c(c2NC(=O)c2cc(Br)ccc2Cl)CS(=O)(=O)C3)c(C)c1	-0.12	/
Cc1c(C(=O)C(=O)NCCCN2CCCC2=O)c2ccccc2n1C	/	-1.82
O=C(Nc1ccc(Cc2ccc(NC(=O)N3CCOCC3)cc2)cc1)N1CCOCC1	/	-2.4
CC1CC(C)CN(CCNc2cc(N(C)C)c3noc4c3c2C(=O)c2ccccc2-4)C1 (configuration not stated)	0.55	-0.01
C(=N\OCc1nnc(-c2ccc3ccccc3c2)o1)/c1cccc2c1OCO2	/	-1.23
CN(Cc1ccccc1)c1nnc(NC(=O)Nc2ccccc2Br)s1	2.86	-1.31
CCC(C)NC(=O)Cn1ncn2c(cc3cc(F)ccc32)c1=O (configuration not stated)	1.47	-2.05
CC(C(=O)NCc1ccc(F)cc1)n1ncn2c(cc3occc32)c1=O (configuration not stated)	0.69	0.52
O=C(NCc1nnc(SCC(=O)N2CCN(c3ccccc3)CC2)o1)c1ccco1	/	-2.87
CC1CCCCC1NC(=O)Cn1ccc2cc(S(=O)(=O)N3CCCC3)ccc21 (configuration not stated)	0.12	/
COc1cc(CNCCSc2nnnn2C)cc(Br)c1OCc1ccc(F)cc1	1.52	1.36
COc1ccc(OC)c(C2C(C(=O)OCC(C)C)=C(C)NC3=C2C(=O)CC(c2cccs2)C3)c1 (configuration not stated)	0.01	0.35
CC1CN(S(=O)(=O)c2cc3c4c(c2)CC(=O)N4CCC3)CC(C)O1 (configuration not stated)	1.64	/
COc1cc(-c2nc3n(n2)C(c2ccc4c(c2)OCO4)C2=C(CCCC2=O)N3)cc(OC)c1OC (configuration not stated)	/	-0.16
Nc1nc(-c2ccccc2)c(C(=O)c2ccccc2)s1	2.78	-1.94
Cc1cc(C)n(CCc2nc3c4c(C)c(C)oc4ncn3n2)n1	0.39	/
O=C(O)CC1(CC(=O)Nc2ccc(N3CCCCC3)cc2)CCCCC1	/	-2.33
Cc1ccc(S(=O)(=O)N2CCN(c3nc4ccccc4nc3-n3nc(C)cc3C)CC2)cc1	1.1	-2.33
Cc1nc(-c2ccc(S(=O)(=O)Nc3cc(Cl)ccc3C)cc2)co1	1.38	/
Cc1c(C(=O)/C=C/N(C)C)sc2ccccc12	/	-2
COc1ccccc1OCc1nc(C#N)c(NCCCn2ccnc2)o1	3.83	-1.89
NS(=O)(=O)c1ccc(NC(=O)c2cc(Cl)cc(Cl)c2)cc1	/	-1.12
O=C(CC1(O)C(=O)N(Cc2ccc(Cl)cc2)c2ccccc21)c1ccc2c(c1)OCO2 (configuration not stated)	1.81	-1.02

Other records.
SMILES	HIV TAR-Tat	CDC25B-CDK2 inh
O=C(CC1Sc2ccccc2NC1=O)NNC(=O)c1cc(C(F)(F)F)cc(C(F)(F)F)c1 (configuration not stated)	/	0.8
Cc1nn(C(=O)c2cccs2)c(C)c1S(=O)(=O)N1CCOCC1	0.14	/
COCCCN(Cc1ccco1)C(=O)c1cc2c(s1)-c1ccc(Cl)cc1S(=O)(=O)C2	1.82	-0.12
COc1cc2c(cc1C)/C(=N\OC(=O)c1cc(OC)c(OC)c(OC)c1)CCC2	/	-4.41
CCCN1C(=O)C2(c3ccccc31)c1c(oc3ccccc3c1=O)C(=O)N2CCCOC(C)C (configuration not stated)	0.28	-2.93
CC(C)c1ccc(C2NC(=O)NC(O)(C(F)(F)F)C2C(=O)c2ccc(Cl)cc2)cc1 (configuration not stated)	/	-2.52
Cc1cccc2cc3c(nc12)N(C(=O)C1CC1)CC3	-0.96	-0.48
CCCCn1cc(S(=O)(=O)c2ccc(OCC)cc2)c(=O)c2cc(F)ccc21	-0.27	0.5
O=C1N(Cc2ccc(F)cc2)c2ccccc2S(=O)(=O)N1c1cc(F)ccc1F	1.04	/
CCCCCCC(=O)OC1CC(C)(C)NC(C)(C)C1	/	-0.8
Cc1cc(C)c2oc(C(=O)Nc3ccc4nsnc4c3)cc(=O)c2c1	1.49	-2.16
CCN1C(C(=O)c2ccccc2)=C(OC(=O)c2ccccc2Cl)c2ccccc2S1(=O)=O	0.84	1.5
Cc1c(-c2noc(C(=O)N3CCC(N4CCCCC4)CC3)n2)oc2ccccc12	-0.65	/
Cc1c(C2CCN(S(=O)(=O)c3cnc[nH]3)CC2)c2ccccc2n1Cc1c(F)cccc1Cl	0.92	/
O=C(CN1N=NC2C(=O)N(c3ccc(F)c(F)c3)C(=O)C21)Nc1ccc2c(c1)OCO2 (configuration not stated)	-0.18	/
COc1ccc2c(c1)CCCC2(C#N)CC#N (configuration not stated)	/	-3.19
CCCN1C(=O)C(O)(CC(=O)c2ccccn2)c2ccccc21 (configuration not stated)	2.03	3.01
CC1=C(C(=O)Nc2cc(C(=O)N3CCOCC3)ccc2C)SCCO1	0.44	/
Cn1c(=O)c2c(nc(CN3CCN(c4ccccc4)CC3)n2CC(N)=O)n(C)c1=O	-1.23	-2.21
COC(=O)Cn1c(CN2CCN(c3ccccc3F)CC2)nc2c1c(=O)n(C)c(=O)n2C	-1.37	-1.2
C=CCN1C(=O)C(O)(c2c(C)[nH]c3ccccc23)c2ccccc21 (configuration not stated)	/	-0.33
COc1ccc(Nc2ncc(F)c(Nc3ccc(OC)cc3)n2)cc1	0.4	-1.22
CCc1ccc(S(=O)(=O)c2nnn3c2nc(N)c2cc(Cl)ccc23)cc1	0.45	-2.04
CSc1ccc(CCNC(=O)CN(C)c2nnc(N3CCCC3=O)s2)cc1	1.33	-1.47
Cc1cc(O)c(C(c2ccc3c(c2)OCO3)c2c(O)cc(C)oc2=O)c(=O)o1	/	-1.67
Cc1nc(-c2csc(S(=O)(=O)NCc3ccc(Br)cc3)c2)no1	1.74	/
O=C1Cn2nnc(C(=O)c3ccccc3)c2C2(CCCCC2)O1	/	-2.06
CSc1nnc(NC(=O)c2nn(-c3ccc(F)cc3)ccc2=O)s1	0.74	0.36
CCOc1ccc(N2C(=O)c3cccnc3C2Nc2cccc(Br)c2)cc1 (configuration not stated)	0.52	/
CCOC(=O)N1CCN(C(=O)c2cccn2-c2nnc(N3CCCC3)s2)CC1	1.35	/
CC(Cc1c[nH]c2ccccc12)NC(=O)c1ccco1 (configuration not stated)	1.09	-2.84
Cc1ccc(-c2noc(Cn3c(=O)[nH]c4cc5c(cc4c3=O)OCO5)n2)cc1	0.58	/
O=c1[nH]c2c(-c3ccc(F)cc3)sc(=S)n2c2ccccc12	1.54	-2.59
Cc1ccc2nc(-c3ccc(Br)cc3)cc(C(=O)O)c2c1	/	-1.59
CCOC(=O)C1=C(O)/C(=C\c2ccc(CNC(=O)C(=O)Nc3ccc(C)c(C)c3)o2)N=C1C	/	-2.32
COC(=O)c1cc(S(=O)(=O)Nc2ccc(OC)cc2OC)cn1C	1.19	-0.84
COc1cnc(CSc2ccccc2)cc1OCC(=O)Nc1ccc2c(c1)OCO2	1.44	/
CC(N/C=C(\C#N)c1nn[nH]n1)C(C)(C)C (configuration not stated)	/	-2.13
CCOc1ccc2c(=O)c(Oc3ccccc3)c(C)oc2c1C	/	0.04
N/C(=N\OC(=O)c1ncc(C(F)(F)F)cc1Cl)c1ccc(C(F)(F)F)cn1	/	-1.72
O=C(COc1cccc2ccc(N3CCCC3)nc12)Nc1ccc(Br)cc1	0.29	/
CCOC(=O)c1cc(-c2ccc(S(=O)(=O)Nc3ccc(F)c(Cl)c3)s2)on1	0.19	/
O=C1c2cccc3c2N(CCC3)C(=O)C1(Cl)Cl	/	-1.74
Cc1cc(C)c(C#N)c(Nc2ccc(-c3ccccc3)cc2)n1	2.11	-1.3
CCc1ccc(-c2cc(C)no2)cc1S(=O)(=O)N1CCOCC1	2.08	/
C=CCNC(=O)c1cc2ccccc2o1	0.68	0.14
CCOC(=O)C1=C(C)Nc2ccc(C)cc2S1	0.36	-2.51
O=C1c2cccnc2C(Nc2ccc(F)cc2Cl)N1Cc1cccs1 (configuration not stated)	1.24	/

Of the compounds above, nine have bromine.
SMILES	HIV TAR-Tat	CDC25B-CDK2 inh
COc1ccc(-c2nnc(SCc3ccc(Br)cc3)o2)c(OC)c1	2.5	1.1
O=C(CSc1nc2ncccc2o1)Nc1ccccc1Br	0.74	/
Cc1ccc(-n2nc3c(c2NC(=O)c2cc(Br)ccc2Cl)CS(=O)(=O)C3)c(C)c1	-0.12	/
CN(Cc1ccccc1)c1nnc(NC(=O)Nc2ccccc2Br)s1	2.86	-1.31
COc1cc(CNCCSc2nnnn2C)cc(Br)c1OCc1ccc(F)cc1	1.52	1.36
Cc1nc(-c2csc(S(=O)(=O)NCc3ccc(Br)cc3)c2)no1	1.74	/
CCOc1ccc(N2C(=O)c3cccnc3C2Nc2cccc(Br)c2)cc1 (configuration not stated)	0.52	/
Cc1ccc2nc(-c3ccc(Br)cc3)cc(C(=O)O)c2c1	/	-1.59
O=C(COc1cccc2ccc(N3CCCC3)nc12)Nc1ccc(Br)cc1	0.29	/

Further compounds:
SMILES	HIV TAR-Tat	CDC25B-CDK2 inh
N#CN=C1CCCCCN1CC(N)=O	/	0.44
CCn1nc(-c2ccncc2)nc2c(=O)n(C)c(=O)nc1-2	-0.24	-0.15
Cc1c(-c2cccc(NC(=O)Nc3ccccc3)c2)nc2ncccn12	/	0.47
COc1ccccc1Nc1ccc([N+](=O)[O-])c2nonc12	/	-3.06
Cc1cc(C)cc(NS(=O)(=O)c2ccc3[nH]c(=O)[nH]c3c2)c1	-0.62	-0.83
Cc1oc(C)c2c(=O)cc(-c3ccc4c(c3)OCO4)cc(OC(=O)c3ccccc3Br)c12	-1.41	-2.6
Cc1ccc2c(=O)cc(C(=O)N(Cc3ccc(Cl)cc3)C3CCS(=O)(=O)C3)oc2c1 (configuration not stated)	0.32	-0.92
